Source: PubChem BioAssay (National Center for Advancing Translational Sciences (NCATS))
Rango complex inh – inhibitors of Rango-importin beta complex formation. Rango CFP/YFP FRET sensor + importin beta, 45 min. 340,000 tested, 0.031% active. Potency, µM (doses to about 92.2 µM), without a hit: at the top dose inhibition of complex formation. Q14974; active = rising FRET ratio curve, often small or poorly fitted; inconclusive = mostly compound fluorescence or quenching in the first reads; inactive = flat curves in all reads;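 further: potency means the concentration at half of the fitted maximal effect; 0% = DMSO wells and 100% = buffer wells lacking importin beta; nearly all actives have a fitted effect of over 15% in size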
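Inhibition scored from the CFP 486 nm/YFP 530 nm FRET ratio 45 min after adding 0.125 microM importin beta to 50 nM Rango biosensor preincubated 5 min with compound (room temperature, PBS with DTT, Tween-20, BSA). No-importin wells as positive control.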
Rango dissoc inh – inhibition of RanGTP-driven Rango-importin beta dissociation | 340,000 tested, 0.071% active | O95149+P62826 | AID 540253 | Potency, µM (top dose mostly 46.1 µM), inactives show at the top dose activity change, negative = inhibition | Biochemical FRET Rango-importin beta, RanGTP-induced dissociation; active means falling FRET ratio curve, often poorly fitted, with flat reads before Ran was added; inconclusive means other falling curves, or compound fluorescence or quenching; inactive means flat or rising ratio curve;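 further: potency means the concentration at half of the fitted maximal effect; % of control where 0% means no effect; nearly all actives have a fitted effect of over 45% in size; -100% = wells without RanGTP and RCC1; the record marks most hits as doubtful in a second field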
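Two FRET readings bracket the reaction: one 5 min after compound meets Rango–importin beta, another 45 min after RanGTP-RCC1 (0.6 uM Ran, 0.2 uM RCC1, 2 mM GTP) is added. Only the second defines inhibition.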
GLA inh pH 4.5 – inhibitors of human alpha-galactosidase A at pH 4.5. purified enzyme, 4-MU-alpha-Gal fluorescence, pH 4.5. activity change, negative = inhibition, % at 105 µM. AID 1467. 230,000 tested, under 10 active; inconclusive = small, poorly fitted or top-dose-only inhibition, or a rising curve; inactive = flat fitted curve, though single readings scatter; no compound was filed as active;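 further: 0% = full activity with enzyme and -100% = basal without enzyme; dose as in the result columns while the protocol names 77 µM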
Target sequence (P06280 whole entry, looked up): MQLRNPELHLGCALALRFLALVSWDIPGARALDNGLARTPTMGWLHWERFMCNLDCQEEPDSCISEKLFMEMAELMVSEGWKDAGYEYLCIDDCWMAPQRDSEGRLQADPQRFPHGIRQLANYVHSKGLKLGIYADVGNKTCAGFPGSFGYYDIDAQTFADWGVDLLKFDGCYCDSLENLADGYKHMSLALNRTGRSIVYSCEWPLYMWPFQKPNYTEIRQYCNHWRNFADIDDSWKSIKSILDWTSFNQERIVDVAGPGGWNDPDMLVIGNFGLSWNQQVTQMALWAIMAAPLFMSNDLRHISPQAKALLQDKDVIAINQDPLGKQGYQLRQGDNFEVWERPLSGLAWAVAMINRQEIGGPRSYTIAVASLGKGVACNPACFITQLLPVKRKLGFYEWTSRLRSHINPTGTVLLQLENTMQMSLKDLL
miR-21 reporter – miR-21 reporter, rising signal; HeLa miR-21 FLuc reporter, luciferase, 48 h; Potency, µM (titrated, usually from 38.3 µM), inactives show at the highest dose reporter change, positive = more light; 340,000 tested, under 10 active; AID 2288; active = well fitted rising curve with a large enough effect; inconclusive = small, poorly fitted or top-dose-only effect; inactive = no such curve, though single readings can be large or run the other way;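 further: % of control where 0% means no effect; miR-21 action dims this reporter so a rising signal means less miR-21 action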
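Luminescence from a firefly luciferase reporter carrying a miR-21 binding site downstream, stably expressed under a CMV promoter in HeLa cells that make miR-21 endogenously, reports miRNA modulation after 48 h compound exposure up to approximately 40uM final.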
Starred values were filed as active, the others as inactive; ? = inconclusive; · = no result given; & = joins results of further samples.

Screens in order – Rango complex inh | Rango dissoc inh | GLA inh pH 4.5 | miR-21 reporter
COc1ccccc1NC(=O)C1=C(C)NC(=O)NC1c1ccccc1F (stereo not given)
 : -0.4% | -5% | 6 | -8%
CCOc1ccc(N2C(=O)CC(Sc3nccc(C)n3)C2=O)cc1 (stereo not given)
 : -0.2% | 3% | 3 | -9%
COc1ccc(N2CCN(S(=O)(=O)c3c(C)nc4scc(C)n4c3=O)CC2)cc1
 : -0.2% | -13% | · | 3%&-1%
CC12CNCC(C)(CN(C(c3ccccc3)c3ccccc3)C1)C2
 : 0.6% | 3% | -1 | -9%
CCOC(=O)C1CCN(C(=O)COC(=O)c2ccccc2C(=O)c2ccc(Cl)cc2)CC1
 : 0.2% | 6% | · | ·
CN(C)S(=O)(=O)N1CCC(Oc2cccc(C(=O)NC3CCOC3)c2)CC1 (stereo not given)
 : -4.0% | -7% | · | -7%
C=CCN(CC=C)C(=S)NC(=O)/C=C/c1ccc(OC)cc1
 : ? | -14% | 16 | -19%
Cc1ccc(NC(=O)c2cccs2)cc1S(=O)(=O)N(C)C
 : -0.8% | 15% | 2 | -20%
CN(Cc1c(C(=O)N/N=C/c2cccc(Cl)c2)nnn1-c1nonc1N)c1ccccc1
 : 2.7% | -17% | · | -8%
O=[N+]([O-])c1ccc(COc2ccc(-c3[nH]ncc3-c3ccccc3)c(O)c2)cc1
 : ? | -3% | -13 | 6%
O=C(COS(=O)c1ccccc1)Nc1cc(Cl)ccc1N1CCOCC1 (stereo not given)
 : 3.7% | 11% | 7 | 0%
CCN(CC)c1ccc(CNc2ccc3c(c2)ncn3C(C)(C)C)cc1
 : -1.2% | 0% | · | 15%
Cc1nn(-c2ccccc2)c2[nH]c(=O)c(CNc3ccc(N4CCOCC4)cc3)cc12
 : ? | ? | 3 | 17%
CCN1CCN(CCC(=O)Nc2ccccc2OC)CC1
 : -0.1% | 10% | 1 | -3%
COc1ccc(C(=O)Sc2ccc(C)cc2)cc1OC
 : -0.5% | 10% | 1 | 0%
COCCNC(=O)COC(=O)c1cccnc1SC
 : -0.6% | 14% | -3 | 1%
CC(C1CC2CCC1C2)N1CC(O)=C(c2nc3ccccc3[nH]2)C1=N (stereo not given)
 : ? | -14% | -4 | -5%
O=C(C1CC1)N1CCc2cc(Br)cc(S(=O)(=O)NCCCN3CCCC3)c21
 : -0.8% | 4% | 1 | -13%
C/C=C/C=C\C(=O)Nc1cccc(C2=NOC3(C2)C[C@@H](C(N)=O)N(C(=O)c2cc([N+](=O)[O-])cc([N+](=O)[O-])c2)C3)c1 (stereo not given in full)
 : 1.1% | 9% | -22 | 3%
Cc1cccc(OCCn2c(NC(=O)c3ccco3)nc3ccccc32)c1
 : ? | -2% | -24 | 11%

Limited to GLA inh pH 4.5, miR-21 reporter and Rango dissoc inh, for six of the compounds above:
SMILES | GLA inh pH 4.5 | miR-21 reporter | Rango dissoc inh
CN(C)S(=O)(=O)N1CCC(Oc2cccc(C(=O)NC3CCOC3)c2)CC1 (stereo not given) | · | -7% | -7%
C=CCN(CC=C)C(=S)NC(=O)/C=C/c1ccc(OC)cc1 | 16 | -19% | -14%
Cc1ccc(NC(=O)c2cccs2)cc1S(=O)(=O)N(C)C | 2 | -20% | 15%
CN(Cc1c(C(=O)N/N=C/c2cccc(Cl)c2)nnn1-c1nonc1N)c1ccccc1 | · | -8% | -17%
O=[N+]([O-])c1ccc(COc2ccc(-c3[nH]ncc3-c3ccccc3)c(O)c2)cc1 | -13 | 6% | -3%
O=C(COS(=O)c1ccccc1)Nc1cc(Cl)ccc1N1CCOCC1 (stereo not given) | 7 | 0% | 11%

Next section
Screens in order – Rango complex inh | Rango dissoc inh | GLA inh pH 4.5 | miR-21 reporter
CN(CC(=O)Nc1ccc(F)c(F)c1F)c1cnccn1
 : · | · | 2 | ?
Cc1ccc(CNC(=O)[C@H](C)N2C(=O)N3CCc4c([nH]c5ccccc45)[C@@]3(C)C2=O)cc1
 : -2.8% | -11% | · | 12%
COc1ccc(C(=O)Nc2nnc(Cc3ccc(OC)c(OC)c3)s2)c(OC)c1
 : 4.2% | -9% | · | -23%
COCCn1c(SCc2nc3ccccc3c(=O)[nH]2)nnc1-c1ccncc1
 : -5.8% | -15% | 2 | -4%
COc1ccc(CCNC(=O)CCn2c(=O)c3cccn3c3cccnc32)cc1OC
 : 4.6% | 3% | · | -10%&-11%
Cn1c(=O)c2c(nc(NCc3ccc4c(c3)OCO4)n2Cc2ccccc2Cl)n(C)c1=O
 : -0.3% | 2% | -11 | -7%
COc1ccc(C(=O)NC(=S)NCCc2ccccc2)cc1
 : -1.6% | -8% | -13 | -5%
O=C1C2CC3N1CCC31c3ccccc3-n3c1c2ccc3=O (stereo not given)
 : 0.5% | 0% | · | ·
C=CCNc1nc(-c2sc(NC(C)=O)nc2C)cs1
 : -4.0% | 2% | -1 | -32%
CCN(C(=O)CN1CCOCC1)c1c(N)n(Cc2ccccc2)c(=O)[nH]c1=O
 : -0.9% | 2% | -16 | -1%

A different layout for some results above:
COc1ccc(C(=O)Nc2nnc(Cc3ccc(OC)c(OC)c3)s2)c(OC)c1
  Rango complex inh: 4.2%	Rango dissoc inh: -9%	GLA inh pH 4.5: ·	miR-21 reporter: -23%
CN(CC(=O)Nc1ccc(F)c(F)c1F)c1cnccn1
  Rango complex inh: ·	Rango dissoc inh: ·	GLA inh pH 4.5: 2	miR-21 reporter: ?

(listing goes on)
Screens in order – Rango complex inh | Rango dissoc inh | GLA inh pH 4.5 | miR-21 reporter
CC1CCCN(C(=O)CCNS(=O)(=O)c2ccc(Br)cc2)C1 (stereo not given)
 : 4.8% | -3% | · | ·
Cc1ccc(CC2CC(=O)N(CCc3ccc4c(c3)OCO4)C2=O)cc1 (stereo not given)
 : 3.8% | -2% | -1 | -6%
CCSc1ncc(C#N)c(N)n1
 : 2.1% | -6% | 8 | 0%
C=CCOc1c(Br)cc(C2C3=C(CCCC3=O)N(C)C3=C2C(=O)CCC3)cc1OCC
 : ? | ? | 5 | -1%
CCn1ncc(/C=N/N=C2\CCC3C4CCc5cc(O)ccc5C4CCC23C)c1C (stereo not given)
 : -1.1% | 0% | 0 | 0%
O=[N+]([O-])c1ccc(S(=O)(=O)Nc2ccc(-c3ccc(N4CCCC4)nn3)cc2)cc1
 : -2.6% | -18% | · | ·
CS(=O)(=O)N1CCCC(C(=O)N2CCOCC2)C1 (stereo not given)
 : 2.2% | -8% | 2 | -3%
CCc1nnc(NC(=O)CSc2ccc(-c3ccc(C)cc3)nn2)s1
 : 4.0% | 1% | 10 | -36%
C=CCCCCCCCCC(=O)Nc1ncccn1
 : -1.0% | -10% | -16 | -1%
COc1cccc(C=NNc2nnc(NN=Cc3cccc(OC)c3OC)c3ccccc23)c1OC
 : ? | -24% | · | ·

Next part, overlapping the part above by three compounds.
Screens in order – Rango complex inh | Rango dissoc inh | GLA inh pH 4.5 | miR-21 reporter
CCc1nnc(NC(=O)CSc2ccc(-c3ccc(C)cc3)nn2)s1
 : 4.0% | 1% | 10 | -36%
C=CCCCCCCCCC(=O)Nc1ncccn1
 : -1.0% | -10% | -16 | -1%
COc1cccc(C=NNc2nnc(NN=Cc3cccc(OC)c3OC)c3ccccc23)c1OC
 : ? | -24% | · | ·
Cc1ccccc1CSc1nnc(C)n1N
 : 5.4% | 11% | 2 | -4%
CC(C)NC[C@@H](O)COc1cccc2ccccc12
 : -1.6% | 14% | 0&-15&-6&3&8&1&-2 | ·
COc1ccc(CN(CC2CCCO2)S(=O)(=O)c2ccc(-n3cnnn3)c(OC)c2)cc1 (stereo not given)
 : 2.2% | 5% | -2 | -4%
COC(=O)[C@@H]1CCCN1Cc1nc(Cc2ccccc2F)no1
 : ? | 10% | -2 | -5%
Cc1cc(Cl)ccc1OCCCC(=O)NNC(=O)c1ccncc1
 : 0.7% | 6% | · | ·
N#CCCN1CCN(S(=O)(=O)c2ccc(S(=O)(=O)N3CCOCC3)cc2)CC1
 : -2.8% | 5% | -11 | -1%
CCN1CCN(Cc2ccc(NC(=O)Nc3ccc(SC)cc3)cc2)CC1
 : -0.9% | 2% | -4 | -71%
CC(C)(C)c1ccc(C(=O)Nn2cnnc2)cc1
 : 3.2% | -18% | · | -19%
CCN(CC)C(=O)C(=O)c1cn(CC(=O)NCc2ccc3c(c2)OCO3)c2ccccc12
 : 1.2% | 6% | 2 | 0%
COc1ccc(NC(=O)Cn2ccc3c(OC)cccc3c2=O)cc1
 : 1.6% | 0% | 2 | 1%
CC(=O)c1ccc(N2CCN(S(=O)(=O)c3csc(C(N)=O)c3)CC2)cc1
 : 5.4% | 0% | · | 0%
CCOC(=O)N1CCN(C(=O)COC(=O)c2ccc(O)cc2O)CC1
 : 2.2% | -1% | -3 | -2%
Cc1cc(C(=O)Nc2ccc3c(c2)OCCO3)ccc1[N+](=O)[O-]
 : 3.8% | 0% | · | -23%
CC(N=c1ccccn1C(=O)Nc1ccc(Cl)cc1)c1ccco1 (stereo not given)
 : 9.8% | 17% | -2 | -30%
O=C(Nc1nc2ccccc2[nH]1)c1ccccc1[N+](=O)[O-]
 : 0.2% | 1% | 1 | -40%
Cc1ccc(C(=O)NCc2cccnc2)cc1S(=O)(=O)Nc1ccccc1
 : -0.3% | 1% | 5 | -5%
Cn1nc(-c2ccccc2)c(-c2nc(-c3ccc(Cl)cc3)no2)c1Cl
 : -0.9% | 4% | -7 | 0%
CC(C)OP(=O)(OC(C)C)C(Nc1ccccc1)c1cccc([N+](=O)[O-])c1 (stereo not given)
 : -1.5% | -17% | 2 | 3%
O=C(NCc1ccco1)c1ccc2c(=O)n(CC3CCCO3)c(=S)[nH]c2c1 (stereo not given)
 : 1.8% | 23% | 0 | -2%
Cc1nc2ccccc2c(=O)n1NC(=O)Nc1ccccc1
 : 7.0% | -4% | -7 | -6%
COc1ccc(C(=O)CN2C3=NCCCN3c3ccccc32)cc1OC
 : 4.6% | -6% | 8 | 0%
CCOc1cc(C)c(Cl)cc1S(=O)(=O)N(CC)CC
 : 1.0% | 10% | -4 | -5%
O=C(NCC1CCCO1)c1cc([N+](=O)[O-])ccc1Cl (stereo not given)
 : 4.0% | 0% | 0 | 0%
CC1CCCCC1NC(=O)C1CCN(S(=O)(=O)c2cccc3nonc23)CC1 (stereo not given)
 : -0.3% | 0% | · | 5%
CN(CC(=O)NCC1CCCO1)S(=O)(=O)c1cc(Cl)ccc1Cl (stereo not given)
 : 5.3% | 5% | 0 | -6%
O=C(/C(Br)=C/Nc1cc(Cl)ccc1Cl)C(F)(F)F
 : -0.1% | 2% | 2 | -1%
CCc1cc(C(=O)N2CCCC(CNS(=O)(=O)c3cccs3)C2)n(C)n1 (stereo not given)
 : 0.4% | -12% | 13 | 1%
Cc1ccc(S(=O)(=O)NCCOc2cc(C)ccc2C)cc1
 : -0.3% | 11% | · | -3%
CCOC(=O)C1C(C(=O)OC)=C(c2ccc(OC)cc2)c2ccc(OC)cc2N1S(=O)(=O)C(F)(F)F (stereo not given)
 : -0.4% | 39% | -7 | ·
O=C(O)c1ccc(NS(=O)(=O)c2ccc3nnn(O)c3c2)cc1
 : -1.4% | -7% | -1 | -1%
CCCCC(=O)Nc1cccc2c1C(=O)N(c1ccccc1)C2=O
 : -0.3% | 4% | 4 | 0%
CC(C(=O)N1CCOCCOCCOCC1)N1C(=O)c2ccccc2C1=O (stereo not given)
 : 0.1% | 39% | 0 | 0%
COc1ccc(SCCN2CC[C@@H](C(C)(C)C)CCC2=O)cc1
 : 1.5% | 2% | · | ·
CC(C)c1cc(NCC2CCCO2)n2c(nc3ccccc32)c1C#N (stereo not given)
 : ? | ? | ? | 9%
COC1(OC)C(/C=C/c2ccc(Cl)cc2)C(C#N)(C#N)C1(OC)OC (stereo not given)
 : 0.9% | 1% | -5 | ?
O=C(CN1CCN(C(=O)c2cccs2)CC1)NC1CCCCC1
 : 1.5% | -3% | -17 | -3%
CC(=O)C1=C(O)C(CSCc2ccccc2)N(C)C1=O (stereo not given)
 : 1.0% | 9% | · | ·
O=C(Nc1ccccc1)c1cc(S(=O)(=O)Nc2cccnc2)ccc1Cl
 : -1.2% | -5% | · | -8%
CC(C)c1ccc(/C=C/C(=O)N2CCCCCC2)cc1
 : 0.2% | 16% | -9 | -39%

This is a subset; count on the stated rates, not on these rows.
